VCAM-1 up imaging = enhancers of VCAM-1 display on endothelial cells, imaging, high-content imaging, pooled HUVEC, TNFa stimulus (AID 457); Pooled HUVEC, TNFa-induced VCAM-1 immunofluorescence imaging; hits of this screen are not shown here; calls only; 0.2% of 10,000 active;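 active = a top-ranked rise in VCAM-1 staining upheld on image or statistical review; inactive = the rest, including candidates rejected on review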;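 also: compounds tested at 5 µM in the well; cells exposed to compound for 24 hours before fixing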
FPR ligand = human FPR ligands by binding competition, primary screen, cell-based, FPRL1 counter-screen, flow cytometry; fMet-Leu-Phe receptor (Homo sapiens), P21462; FPR-expressing cells, fluorescent ligand binding; inhibition, %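 (tested at 6.7 µM)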; 0.74% of 24,000 active;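 also: 0% = buffer wells and 100% = receptor blocker peptide wells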
Target sequence (P21462 whole entry, looked up): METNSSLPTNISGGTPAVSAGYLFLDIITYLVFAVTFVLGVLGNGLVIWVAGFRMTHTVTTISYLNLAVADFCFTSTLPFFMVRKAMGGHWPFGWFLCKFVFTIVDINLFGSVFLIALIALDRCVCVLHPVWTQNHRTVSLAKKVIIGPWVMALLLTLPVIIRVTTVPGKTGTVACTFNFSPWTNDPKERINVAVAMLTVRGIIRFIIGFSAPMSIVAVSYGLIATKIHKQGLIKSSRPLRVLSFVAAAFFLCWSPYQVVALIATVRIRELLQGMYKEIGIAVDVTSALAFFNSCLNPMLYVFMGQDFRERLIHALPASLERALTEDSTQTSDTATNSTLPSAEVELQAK
FPRL1 ligand = human FPRL1 ligands by binding competition, primary screen, cell-based, FPR counter-screen, flow cytometry | FPRL1-expressing cells, fluorescent ligand binding inhibition | inhibition, %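 (tested at 6.7 µM)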 | 0.3% of 24,000 active | AID 441, 2006;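 also: 0% = buffer alone and 100% = receptor blocker peptide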
Target sequence (P25090 whole entry, looked up): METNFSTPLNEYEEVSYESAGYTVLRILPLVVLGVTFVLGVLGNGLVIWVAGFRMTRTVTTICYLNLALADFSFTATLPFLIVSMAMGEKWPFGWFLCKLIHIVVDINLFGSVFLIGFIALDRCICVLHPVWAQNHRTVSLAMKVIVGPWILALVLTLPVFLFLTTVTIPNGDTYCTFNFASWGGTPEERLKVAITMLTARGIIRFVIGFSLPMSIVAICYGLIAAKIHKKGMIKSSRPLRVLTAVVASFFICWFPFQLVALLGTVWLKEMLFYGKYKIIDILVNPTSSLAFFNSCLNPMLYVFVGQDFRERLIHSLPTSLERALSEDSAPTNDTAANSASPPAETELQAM
VCAM-1 inhibition = inhibitors of TNFa-induced VCAM-1 surface display, cell-based, plate reader, pooled HUVEC, TNFa stimulus (AID 454); HUVEC TNFa-induced VCAM-1 surface immunofluorescence, plate reader; numbers were filed only for top-ranked candidate wells; inhibition, % at 5 µM; 0.2% of 10,000 active;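 active = compound among top-ranked inhibitors of TNF-induced VCAM-1 adhesion protein staining, with the hit upheld by image or statistical review; inactive = the rest, including hits rejected on review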;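 also: 0% = TNFa with vehicle and 100% = cells without TNFa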
VCAM-1 down imaging = inhibitors of TNFa-induced VCAM-1 surface display, imaging, high-content imaging, pooled HUVEC, TNFa stimulus (AID 456). HUVEC TNFa-induced VCAM-1 surface expression, immunofluorescence imaging; numbers were filed only for top-ranked candidate wells. one-dose inhibition, % at 5 µM; IC50 in µM for titrated hits. 0.2% of 10,000 active;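 active = top tenth filtered wells with inhibition above zero that passed visual or statistical confirmation; inactive = the rest, including hits rejected on review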;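 also: 0% = stimulated vehicle wells and 100% = unstimulated cells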
Numbers without * were called inactive; i = inactive; . = not tested or not shown.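 The calls were made as follows, unless noted: active = mean above 30%; inconclusive = self-fluorescent; inactive = the rest.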 A portion of the library, so the mix of outcomes need not match the whole.

SMILES	VCAM-1 up imaging	FPR ligand	FPRL1 ligand	VCAM-1 inhibition	VCAM-1 down imaging
CCOc1cccc(/C(O)=C2/C(=O)C(=O)N(CCOC)C2c2ccco2)c1 (configuration not stated)	.	4	-1	.	.
COCn1c(COc2ccccc2)nc2ccccc21	i	1	1	i	i
Cc1ccc(CCNC(=O)C2CCN(S(=O)(=O)c3cccc4nonc34)CC2)cc1	.	-5	3	.	.
COc1ccc(CC(=O)N2CCN=C2SC)cc1	.	-3	-1	.	.
CCOc1ccc(OCC)c(NC(=O)C2CCN(S(=O)(=O)c3cccc4nonc34)CC2)c1	.	-8	-1	.	.
COc1ccccc1NC(=O)C1=C(C)Nc2nnnn2C1c1ccccc1OC (configuration not stated)	i	3	-1	i	i
CCOc1ccccc1C1C(C(=O)Nc2ccc(OC)cc2)=C(C)Nc2nc(CCCO)nn21 (configuration not stated)	i	-1	-2	i	i
COc1ccc(Cl)cc1C(=O)N(Cc1nc(-c2cccc(C)c2)no1)C(C)C	.	-4	-4	.	.
O=C(Nc1cc(C(F)(F)F)ccc1Cl)C1CCN(c2nnc(-n3cccc3)s2)CC1	i	2	-3	i	i
CC1CC(=O)Nc2ccccc2S1(=O)=O (configuration not stated)	.	-4	-5	.	.

In a second layout: three of the compounds above.
SMILES | VCAM-1 up imaging | FPR ligand | FPRL1 ligand | VCAM-1 inhibition | VCAM-1 down imaging
CCOc1ccccc1C1C(C(=O)Nc2ccc(OC)cc2)=C(C)Nc2nc(CCCO)nn21 (configuration not stated) | i | -1 | -2 | i | i
COc1ccc(Cl)cc1C(=O)N(Cc1nc(-c2cccc(C)c2)no1)C(C)C | . | -4 | -4 | . | .
O=C(Nc1cc(C(F)(F)F)ccc1Cl)C1CCN(c2nnc(-n3cccc3)s2)CC1 | i | 2 | -3 | i | i

Record cards (already shown). Screens in order: VCAM-1 up imaging, FPR ligand, FPRL1 ligand, VCAM-1 inhibition, VCAM-1 down imaging
CCOc1cccc(/C(O)=C2/C(=O)C(=O)N(CCOC)C2c2ccco2)c1 (configuration not stated) is listed as ., 4, -1, ., .
Cc1ccc(CCNC(=O)C2CCN(S(=O)(=O)c3cccc4nonc34)CC2)cc1 is listed as ., -5, 3, ., .
CCOc1ccccc1C1C(C(=O)Nc2ccc(OC)cc2)=C(C)Nc2nc(CCCO)nn21 (configuration not stated) is listed as i, -1, -2, i, i
CCOc1ccc(OCC)c(NC(=O)C2CCN(S(=O)(=O)c3cccc4nonc34)CC2)c1 is listed as ., -8, -1, ., .
COc1ccc(Cl)cc1C(=O)N(Cc1nc(-c2cccc(C)c2)no1)C(C)C is listed as ., -4, -4, ., .

(cont.)
SMILES	VCAM-1 up imaging	FPR ligand	FPRL1 ligand	VCAM-1 inhibition	VCAM-1 down imaging
COc1ccc(NC(=O)c2nnn(Cc3cccc(F)c3)c2N)c(OC)c1	.	-1	3	.	.
COc1ccc(C2C(C(=O)c3sc(C)nc3C)=C(O)C(=O)N2CCN(C)C)cc1OC (configuration not stated)	i	-3	3	i	i
CC1CCN(C(=O)Cn2c(=O)n(Cc3ccc4c(c3)OCO4)c(=O)c3ccccc32)CC1	.	-4	6	.	.
CC(C)(C)C(=O)CNS(=O)(=O)c1ccc(S(=O)(=O)NC2CCCC2)cc1	i	4	-5	i	i
COc1cccc(C2CC(c3ccccc3)n3ncnc3N2)c1 (configuration not stated)	i	5	7	i	i
CC1CCN(CC(C)OC(=O)c2ccc3c(c2)OCCO3)CC1 (configuration not stated)	.	-10	-2	.	.
c1ccc(OCCCn2nnc(-c3cccnc3)n2)cc1	i	4	-7	i	i
O=C1OC(c2ccccc2)=C/C1=C\N1CCOCC1	.	1	-4	.	.
O=C(NCC1CCCO1)C1c2ccccc2C(=O)N1C1CCCCCCC1 (configuration not stated)	.	-4	1	.	.
CCc1ccc2c(c1)C(NC(C)=O)C(=O)N2CC (configuration not stated)	.	-6	4	.	.
COc1ccc(Oc2c(C)oc3c(CN(C)C)c(O)ccc3c2=O)cc1	.	-12	-4	.	.
COc1cccc(N2CCN(C(=O)CN(C)S(=O)(=O)c3ccc4c(c3)CCC(=O)N4)CC2)c1	.	0	6	.	.
Cc1cc(NC(=O)CSc2nc(CCC3CCCC3)nc3ccccc23)no1	i	-2	-8	i	i
Cn1c2ccccc2c2cnn(CC(=O)N3CCN(c4ncccn4)CC3)c(=O)c21	.	-3	-1	.	.
CC(C)CCN(C)C1CCN(S(=O)(=O)c2ccc(F)cc2)CC1	i	10	9	i	i
COc1ccccc1CNC(=O)C1CCCN(S(=O)(=O)c2cnc[nH]2)C1 (configuration not stated)	i	-1	2	i	i
CCOC(=O)N1CCC(c2cc(=O)n3[nH]c(-c4ccccc4)cc3n2)CC1	.	6	1	.	.
O=C(NCCCN1CCCC1=O)c1ccc(CNS(=O)(=O)c2ccc(F)cc2)cc1	.	-2	-3	.	.
Cc1ccc2ncnc(NCCCN3CCOCC3)c2c1	i	0	0	i	i
CCN1CCN(C(=O)C2c3cc(OC)c(OC)cc3C(=O)N3CCc4ccccc4C23)CC1 (configuration not stated)	.	-2	-3	.	.
CCCN1CCN(CCCNC(=O)c2cc3c(=O)n(C)c4ccccc4c3n2C)CC1	.	-5	6	.	.
CCCNC(=O)Cc1ncn[nH]1	.	-3	-4	.	.
CC(=O)N1CCCc2cc(S(=O)(=O)N3CCN(c4ccccn4)CC3)ccc21	.	-1	-2	.	.
Cc1sc(CO)c(Sc2ccccc2)c1C(=O)O	.	2	-8	.	.
CC(=O)C1=C(NC(=O)c2ccccc2F)C[C@@H]2[C@H]1C2(C)C	i	-7	0	i	i
CCC(C)NC(=O)CCS(=O)(=O)c1ccc2c(c1)n(C)c(=O)c(=O)n2C (configuration not stated)	.	0	1	.	.
CCCCN(C)C(=O)c1cn(C)c2ccc(S(=O)(=O)N(C)C)cc2c1=O	i	-4	-1	i	i
COc1ccccc1CNS(=O)(=O)c1cccc(S(=O)(=O)N2CCOCC2)c1	i	-1	-7	i	i
Cc1c(/C(O)=C2/C(=O)C(=O)N(CCN3CCOCC3)C2c2ccco2)cnn1-c1ccccc1 (configuration not stated)	.	0	-1	.	.
O=C(Cn1cnc2c(nnn2Cc2ccc(F)cc2)c1=O)N1CCN(c2ccccc2)CC1	.	-3	2	.	.
CC(=O)C(Sc1nc(-c2ccco2)nc2c1c(=O)n(C)c(=O)n2C)C(=O)N(C)C (configuration not stated)	.	-2	-3	.	.
CC(=O)Nc1ccc(S(=O)(=O)N2CCC(c3nc4ccccc4[nH]3)CC2)cc1	i	1	-4	i	i
CCC1Oc2ccccc2N(CC(=O)NCCC2=CCCCC2)C1=O (configuration not stated)	.	0	-8	.	.
O=C(C1=C(O)C(=O)N(c2ncccn2)C1c1cccs1)c1ccco1 (configuration not stated)	.	-4	0	.	.
COC(F)(C(=O)Nc1ccc2c(c1)C(=O)NC2=O)C(F)(F)F (configuration not stated)	.	-3	0	.	.
CCC(C)(C(=O)NC1CCCCC1)N(Cc1ccco1)C(=O)CC1NC(=O)NC1=O (configuration not stated)	.	8	3	.	.
O=C(c1cc2cc3ccc(Cl)cc3nc2o1)N1CCN(Cc2ccc3c(c2)OCO3)CC1	.	-2	-4	.	.
CCC1CCCCN1CCCNC(=O)CNC(=O)Cn1ccc2ccccc2c1=O (configuration not stated)	.	10	11	.	.
Cc1cc(N2CCN(C)CC2)nc2ccc(NC(=O)CCC(=O)NCCC3=CCCCC3)cc12	.	4	-6	.	.
CCOC(=O)N1CCC(N(C(=O)Nc2ccc(CC)cc2)C(C)CC)CC1 (configuration not stated)	.	0	1	.	.
CCCCNC(=O)CS(=O)Cc1nc(-c2cccc(Cl)c2)oc1C (configuration not stated)	.	5	-2	.	.
NC(=O)C1(N2CCCCC2)CCN(C(=O)c2ccc(-n3cnnn3)cc2)CC1	.	4	0	.	.
CC1CCCCC1NC(=O)CCCc1nc2ccccc2c(=O)[nH]1 (configuration not stated)	i	4	-3	i	i
CCCN1Cc2cccc(C(=O)Nc3cc(OC)cc(OC)c3)c2C1=O	.	-1	7	.	.
Cc1cc(=O)oc2cc(OCC(=O)OCC(=O)N3CCc4ccccc43)ccc12	i	-2	3	i	i
O=C(Nc1cccnc1)c1cc2c(ccc3ccccc32)o1	i	2	-3	i	i
COc1ccc(C2C(C(=O)c3sc(C)nc3C)=C(O)C(=O)N2CCN2CCOCC2)cc1 (configuration not stated)	i	-16	-11	i	i
COc1ccc(CN(C(=O)CNC(=O)c2ccco2)C(C(=O)NC2CCCC2)c2ccco2)cc1 (configuration not stated)	i	19	13	i	i
CC1=C(C(=O)OC2CCCCC2)C(c2cccnc2)n2nnnc2N1 (configuration not stated)	.	-9	-1	.	.
CC(=O)Oc1c(S(=O)(=O)c2ccc(C)cc2)c(C)nn1C(C)(C)C	.	-4	-5	.	.

The results go on.
SMILES	VCAM-1 up imaging	FPR ligand	FPRL1 ligand	VCAM-1 inhibition	VCAM-1 down imaging
COc1cccc(-c2cc(C(=O)Nc3cc(C)on3)no2)c1	.	0	2	.	.
COC(=O)c1[nH]c2cc(OC)ccc2c1NC(=O)CCN1CCCCC1	i	-2	4	i	i
CSC1=NCCN1C(=O)c1ccc(S(=O)(=O)N2CCCCC2)cc1	.	-5	3	.	.
CC(=O)c1ccc(OCC(O)CN2C(C)(C)CC(O)CC2(C)C)cc1 (configuration not stated)	.	-1	2	.	.
CCOC(=O)c1nnn(-c2nonc2N)c1CNc1ccc(C)c(Br)c1	.	-11	-10	.	.
Cc1cc(NC(=O)CCCN2C(=O)c3cccnc3C2=O)no1	i	-10	-1	i	i
CC1c2nc3ccccc3n2C(CC(=O)NCc2ccccn2)C(=O)N1Cc1ccccc1 (configuration not stated)	i	0	2	i	i
CCCCSc1nc2c(c(=O)[nH]1)CCC2	.	4	3	.	.
O=C(COc1ccc(Cl)cc1)NCc1nnc(SCC(=O)NC2CCCCC2)o1	.	1	4	.	.
CCc1cc2c(=O)c(-c3nc4ccccc4n3C)c(COCC(=O)O)oc2cc1OC(=O)C(C)(C)C	.	21	26	.	.
CCC1Oc2ccc(C)cc2N(CC(=O)NCCCN2CCN(Cc3ccccc3)CC2)C1=O (configuration not stated)	.	-1	1	.	.
O=C(CCNC(=O)c1ccc(Br)o1)NCc1ccc(Cl)cc1	.	4	-4	.	.
CCC1Oc2ccc(C)cc2N(CC(=O)NCCCN2CCCCC2CC)C1=O (configuration not stated)	i	-6	-1	i	i
O=c1[nH]c2ccccc2n1CCCN1CCN(C(c2ccccc2)c2ccccc2)CC1	i	7	7	i	i
Cc1ccc(NC(=O)c2ccccc2O)cc1	i	2	4	i	i
COc1ccc(CNC(=O)c2ccc(N3CCCC3=O)cc2)cc1	.	1	0	.	.
COc1cc2c(cc1OC)C(C(=O)NC1CC1)C1c3ccccc3CCN1C2=O (configuration not stated)	.	0	3	.	.
Cc1cc(Nc2cccc(C(F)(F)F)c2)n2nc(C)nc2n1	.	4	-9	.	.
CCc1ccc(Nc2oc(C)cc(=O)c2C(C)=O)cc1	.	-6	-2	.	.
CC(C)OC(=O)CSc1nnc(-c2ccc(C(C)(C)C)cc2)n1N	i	-2	1	i	i
COc1ccc2c(=O)c(-c3ccccc3C)c(C)oc2c1	.	-6	-4	.	.
COc1ccc2[nH]c(=O)c(CN(CCO)S(=O)(=O)c3ccc4c(c3)OCCO4)cc2c1	i	-2	-1	i	i
COc1ccc(-c2c(C#N)c(SCc3c(C)noc3C)nc3c2C(=O)CC(C)(C)C3)cc1	.	-20	-24	.	.
CCc1cccc(C)c1NC(=O)CN1C(=O)c2ccccc2S1(=O)=O	.	15	14	.	.
COc1ccc2cnn(-c3ccccc3C)c(=O)c2c1OC	i	-10	-6	i	i
CSc1nsc(SC)c1C(=O)N1CCN(S(=O)(=O)c2ccc(C)cc2)C1C (configuration not stated)	.	1	-5	.	.
CCn1cc(C2=NC(C(C)C)CO2)c2ccccc21 (configuration not stated)	.	-2	0	.	.
Cc1cccc(NC(=O)c2cc(NC(=O)c3ccco3)ccc2N2CCCCC2)c1	i	-6	-8	i	i
COc1ccc(-c2nnc(SCC(=O)N3CCOCC3)o2)cc1OC	i	-1	-2	i	i
Cc1cc(C)cc(Nc2ccc(C(=O)O)cc2N)c1	.	-4	-9	.	.
COc1ccccc1CNC(=O)CCN1C(=O)COc2ccc(C)cc21	.	5	9	.	.
Cc1ccc(-c2noc(CCC(=O)NC3CCCc4ccccc43)n2)cc1 (configuration not stated)	i	3	0	i	i
CCOC(=O)c1cc2sccc2n1CC(=O)Nc1ccc2c(c1)OCCO2	i	7	-4	i	i
O=C(NCc1cccs1)c1noc2c1CCCC2	.	-3	-3	.	.
O=C(COc1ccccc1F)NC1CC1	i	1	-1	i	i
C=CCSc1nnc(-c2ccc(Cl)cc2Cl)o1	i	7	-4	i	i
CCCCN(CCCC)C(=O)CN(C)S(=O)(=O)c1ccc2c(c1)n(C)c(=O)c(=O)n2C	i	-3	-5	i	i

From PubChem
